SmPrx2 inh – inhibitors of Schistosoma mansoni peroxiredoxin 2; S. mansoni Prx2 activity coupled to TGR/GSH (TGR is thioredoxin glutathione reductase), NADPH fluorescence loss, qHTS; some inactives read as strong as hits; Potency, µM; 65,000 compounds, 0.07% hits; active means full or partial inhibition curve with a strong effect at the top dose; inconclusive means weaker partial or single-point curve; inactive means no accepted curve; note: series up to 57 µM; many of its hits are not listed in these tables
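Prx2 inhibition was measured as reduced NADPH consumption when electrons flowed from NADPH through TGR and glutathione to Prx2 and H2O2. Plates were read kinetically over 8 min; enzyme reagents were held at 4 deg C during dispensing.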
Anthrax LT inh – inhibitors of anthrax lethal toxin internalization; Cells, anthrax lethal toxin internalization, FRET ratio (460/530); AID 912; 70,000 compounds, 0.67% hits; Potency, µM (highest dose often 40 µM), for inactives: at the highest dose activity change, negative = inhibition, hits mostly inhibitors; active = well fitted falling ratio curve with the 530 nm signal flat; inconclusive = other ratio curves, or a change in one channel alone; inactive = flat curves in the ratio and both channels; the % refers to the ratio; note: % is set by controls: 0 for no effect and ±100 for the full control effect; nearly all actives have a fitted effect of over 50% in size; tested in ME-180 cells; beta-lactamase reporter
* = called active by the depositor; ? = inconclusive; / = not tested or not shown; [ ] = another dose, or the depositor's remark. Potency is the fitted concentration of half-maximal effect. These rows are one share of the data (hit frequency here may not be typical).

SMILES	SmPrx2 inh	Anthrax LT inh
CN(C)[C@H]1C(=O)C(C(=O)NCN2CCCC2)=C(O)[C@]2(O)C(=O)C3=C(O)c4c(O)cccc4[C@@](C)(O)[C@H]3C[C@@H]12	>57	-2%[3.58 µM]
Clc1ccccc1Cn1nnc2c(NCC3CC3)ncnc21	>57	-8%
O=P1(Nn2cnnc2)C=C(c2ccccc2)OC(c2ccccc2)=C1	>57	9%
CCCN(CCC)S(=O)(=O)c1ccc(C(=O)O)cc1	>57	-10%
COc1ccc(N2C(=O)CC(NCc3cccc(F)c3)C2=O)cc1 (stereo not given)	>57	0%
O=C(CN1C(=O)C2CC=CCC2C1=O)Nc1nc2ccccc2[nH]1 (stereo not given)	>57	5%
Cc1nc(SCC(=O)Nc2ccnc3ccccc23)n[nH]1	>57	15%
Clc1ccc(C2=Nn3c(nnc3-c3cccnc3)SC2)s1	>57	6%
Cc1ccccc1OCc1nnc(SCC(=O)Nc2ccc3c(c2)OCO3)n1C	>57	5%
COc1cc(C2N(c3cc(C)on3)C(=O)C3CCCN32)cc(OC)c1OC (stereo not given)	>57	2%
CCc1ccc2c(COC(=O)c3n[nH]c4ccccc34)cc(=O)oc2c1	>57	?
N#Cc1ccc(CN2CCC3(CC2)CCN(C(=O)c2cccc(F)c2)CC3)cc1	>57	-10%
O=C(c1cc(-c2ccc(Cl)c(Cl)c2)on1)N1CCN(c2ccccc2)CC1	>57	2%
Fc1ccccc1CCNc1nnnn1-c1ccccc1	>57	-16%
CCn1nnnc1-c1ccc(OC)c(S(=O)(=O)NCc2ccccc2)c1	>57	-5%
COc1ccc(S(=O)(=O)N2CC(C)N(S(=O)(=O)c3ccc(OC)cc3)CC2C)cc1 (stereo not given)	/	-8%
CC(C)Cc1ccc(C(C)C(=O)N2CCOCC2)cc1 (stereo not given)	>57	?
CC(C(=O)NCC1CCCO1)n1cccc1C(=O)c1ccccc1 (stereo not given)	>57	-2%
COC(=O)Cc1[nH]nc2c1C1(CCSCC1)C(C#N)=C(N)O2	>57	-3%
CC(=O)Nc1ccc(S(=O)(=O)N(C)CC(=O)NC2=NCCS2)cc1	>57	10%
COc1cc(OC)cc(-c2cc3nc(C)c(CCC(=O)O)c(C)n3n2)c1	>57	-1%
CC(OC(=O)CNC(=O)c1ccc2c(c1)OCO2)C(=O)NCCC1=CCCCC1 (stereo not given)	>57	21%
Cc1ccccc1N1C(=O)[C@@H]2Cc3ccccc3CN2C1=O	>57	1%
Cc1nnc(SCc2ccccc2C#N)n1-c1ccccc1	>57	?
COc1ccccc1CC1(C)NC(=O)N(CC(=O)N2CC(C)OC(C)C2)C1=O (stereo not given)	>57	4%
COC(=O)NCC1(C)CC(NC(=O)OC)CC(C)(C)C1 (stereo not given)	>57	0%
O=C(c1ccncc1)N1CCN(C(=O)c2ccncc2)CC1	>57	-2%
O=S(=O)(NCc1ccccc1)c1ccc(S(=O)(=O)N(Cc2ccccn2)Cc2ccco2)cc1	>57	-13%
COc1cccc(-c2nccc(NCc3cnc(C)cn3)n2)c1	>57	?
CCS(=O)(=O)N1CCCC(C(=O)NC2CCCCC2)C1 (stereo not given)	>57	5%
c1ccc(-c2nn3c(C4CCCCC4)nnc3s2)nc1	>57	10%
CNC(=O)Nc1ccccc1C(=O)NCc1ccccc1	>57	-8%
CC1CN(C(=O)CSc2nnc(-c3ccc(Cl)cc3)n2C)CC(C)O1 (stereo not given)	>57	4%
CCOc1ccc(N2C(=O)CC(N3CCN(C4CCc5ccccc5C4)CC3)C2=O)cc1 (stereo not given)	/	-2%
COC(=O)c1ccc(C(NC(=O)OCc2ccccc2)/C(F)=C/[C@@H](C)C(=O)NCc2ccc(-c3ccccc3)cc2)cc1 (stereo not given in full)	/	2%
COc1ccc(Oc2coc3cc(OC(=O)N4CCOCC4)ccc3c2=O)cc1	>57	?
COC(=O)c1cc(Br)ccc1OC(=O)c1cccnc1	>57	-15%
COc1ccc(-c2noc(CCC(=O)Nc3cc(OC)ccc3OC)n2)cc1	>57	2%
N#Cc1nc(-c2cccs2)oc1NCc1ccco1	/	9%
CCOC(=O)C1CCCN(Cc2c(Cl)cccc2Cl)C1 (stereo not given)	>57	-8%
COCCn1c(=O)cnc2cnc(Oc3cccc(Cl)c3)nc21	>57	-1%
O=C(NCc1ccc(Cl)cc1)c1noc2c1CCCCC2	>57	-10%
C=CCN(CC=C)CC(O)Cn1c2ccccc2c2ccccc21 (stereo not given)	>57	?
COC(=O)c1ccccc1NC(=O)COC(=O)c1cccnc1	>57	-1%
CCN(CC)C(=O)CSc1nc(O)cc(=O)n1C	>57	-1%
O=C(O)[C@H]1CN(C/C=C/P(=O)(O)O)CCN1	/	0%
CCc1ccc2oc(=O)cc(CN(C)Cc3ccccc3)c2c1	>57	-7%
O=C(NCCc1cn2ccccc2n1)C1CCCCC1	>57	13%
COc1cc(OC)c(C(=O)COc2ncnc3ccccc23)c(OC)c1	>57	12%
Cc1cc(C)nc(SCCn2c(N3CCCCC3)nc3c2c(=O)n(C)c(=O)n3C)n1	>57	-15%
CCOC(=O)N1CCC(NC(=O)c2ccc(CS(=O)(=O)c3c(Cl)cccc3Cl)o2)CC1	>57	-11%
N#CC1(Nc2ccc(-c3ccc(NC4(C#N)CCCC4)cc3)cc2)CCCC1	>57	0%[8 µM]
CC(C)c1ccc(NC(=O)C2CCN(S(C)(=O)=O)CC2)cc1	>57	-12%
CNc1ncnc2c1ncn2[C@@H]1O[C@@H](CO)[C@H](O)[C@@H]1O	>57	14%
Cc1cc(OCCCCCNCCO)cc(C)c1Cl	/	?
CCOC(=O)N1CCC(NC(=O)C2CCN(S(=O)(=O)N3CCCC3)CC2)CC1	>57	-3%
COc1ccc(C(=O)N2CCN(C(C)=O)CC2)cc1S(=O)(=O)NCc1ccc(Cl)cc1	>57	3%
Cc1noc(C)c1C(=O)NCc1cccs1	>57	-19%
Cn1c(=O)oc2cc(S(=O)(=O)N3CCC4(CC3)OCCO4)ccc21	>57	3%
COc1ccc(-c2csc(Cc3nnc4n3CCCCC4)n2)cc1	>57	17%

Looked up by structure from the entries so far, 4 records:
SMILES	SmPrx2 inh	Anthrax LT inh
Cn1c(=O)oc2cc(S(=O)(=O)N3CCC4(CC3)OCCO4)ccc21	>57	3%
Cc1cc(OCCCCCNCCO)cc(C)c1Cl	/	?
Cc1cc(C)nc(SCCn2c(N3CCCCC3)nc3c2c(=O)n(C)c(=O)n3C)n1	>57	-15%
CC(C)c1ccc(NC(=O)C2CCN(S(C)(=O)=O)CC2)cc1	>57	-12%

The results go on:
SMILES	SmPrx2 inh	Anthrax LT inh
CCOc1ccc(OCC)c(Nc2cc(C)nc3ncnn23)c1	>57	-8%
O=C(CSC1=NCCS1)Nc1nc(-c2ccccc2)cs1	/	?
CCOc1cc2[nH]c(=S)n(CC3CCCN3CC)c(=O)c2cc1OCC (stereo not given)	>57	-4%
O=c1[nH]c(SCCOc2ccccc2)nc2ccccc12	>57	3%
CCOc1ccc(NC(=O)CSc2nnc(Cc3cccn3C)n2-c2ccc(F)cc2)cc1	>57	-11%
Cn1c(=O)c2c(nc(CN3CCOCC3)n2Cc2ccccc2)n(C)c1=O	>57	-2%
CCC(C)(C(=O)NC1CCCC1)N(C(=O)c1ccccn1)c1ccccc1 (stereo not given)	>57	16%
CS(=O)(=O)N1CCN(c2ccccc2NC(=O)c2cccs2)CC1	>57	?
CCn1c(=Nc2ccc(N3CCOCC3)cc2)ccc2ccccc21	>57	-11%
COc1ccc(-c2cc(N3CCCC3)n3ncnc3n2)cc1	>57	-5%
CCn1c(CNc2ccccc2Cl)nnc1SCC(=O)NCc1ccccc1	>57	-14%
COC(=O)CCCC(=O)O	>57	-2%[8 µM]

2 entries from above in a different format:
CCOc1ccc(OCC)c(Nc2cc(C)nc3ncnn23)c1
  SmPrx2 inh: >57	Anthrax LT inh: -8%
O=C(CSC1=NCCS1)Nc1nc(-c2ccccc2)cs1
  SmPrx2 inh: /	Anthrax LT inh: ?

The list continues.
SMILES	SmPrx2 inh	Anthrax LT inh
COC(=O)c1cc(S(=O)(=O)N2CCOCC2)ccc1Sc1ccccc1N	>57	-10%
COc1cc(NC(=O)C2CCN(S(=O)(=O)c3ccc(Cl)cc3)CC2)ccc1-n1cnnn1	>57	-23%
CC(C)(C)NC(=O)Cn1c(SCC(=O)NC2CCCCC2)nc2ccccc21	>57	7%
COc1ccc(C(=O)n2nc(-c3ccc(Cl)cc3)nc2N)cc1OC	>57	5%
Cc1cccc(C2CC(c3ccc(Br)cc3)Nc3nc(N)nn32)c1 (stereo not given)	>57	-21%
CCCn1nc(C(=O)N2CC(=O)Nc3ccccc32)c2ccccc2c1=O	>57	4%
COc1ccccc1NC(=O)CSc1ncn[nH]1	/	-12%
COc1ccc(S(=O)(=O)Nc2nc(C(F)(F)F)cs2)cc1	>57	10%
Cc1ccc(Nc2c3c(nc4ncnn24)CCC3)cc1	/	-3%
COc1n[nH]c2nncnc12	>57	7%
CC(C)C(NS(=O)(=O)c1ccc2c(c1)oc(=O)n2C)C(=O)N1CCN(Cc2ccccc2)CC1 (stereo not given)	>57	1%
COC(=O)CSc1nc2cc(C)cc(C)c2cc1C#N	>57	-3%
CCCC(=O)c1c(C)c2ccccc2n1C	/	?
CN1CCN(C(=O)c2cc(-c3ccccc3)on2)CC1	>57	-8%
NC(=O)Nc1n[nH]c(-c2ccccc2)n1	>57	-5%[8 µM]
C[C@H]1[C@H](C)CC[C@@]2(C(=O)O)CC[C@]3(C)C(=CC[C@@H]4[C@@]5(C)CC[C@H](O)C(C)(C)[C@@H]5CC[C@@]43C)[C@@H]12	>57	7.9µM*
CC(C)[C@@H]1NC(=O)[C@H](CCCCN)NC(=O)[C@H](Cc2c[nH]c3ccccc23)NC(=O)[C@H](Cc2ccc(O)cc2)NC(=O)[C@H](C)N(C)C(=O)[C@H](Cc2ccccc2)NC1=O	>57	-15%
COC(=O)c1[nH]c2ccc(Br)cc2c1NC(=O)CN1CCN(C2CCCCC2)CC1	>57	?
O/N=C1\CC2(Cc3nonc31)OCCO2	>57	/
Oc1ccc(-c2n[nH]c(=S)n2Cc2ccccc2)cc1	/	-18%
COc1cccc(C(=O)NCCn2ccc3ccccc32)c1	>57	-1%
Clc1ccc(SCCCCn2ccnc2)cc1	/	?
COc1ccccc1N1CCN(C(CNS(=O)(=O)c2ccc(C)cc2)c2cccnc2)CC1 (stereo not given)	>57	?
Cc1nc(N[C@@H](Cc2c[nH]c3ccccc23)C(=O)O)c2oc3ccccc3c2n1	>57	-3%
CCOC(=O)N1CCN(C(=O)c2c(O)c3cccc4c3n(c2=O)CC4)CC1	>57	-6%
Cn1c(=O)c2c(nc(CN3CCc4ccccc4C3)n2Cc2ccccc2)n(C)c1=O	>57	?
CC(=O)N1CCC2(CCCN(C(=O)Nc3cccc(F)c3)C2)CC1	>57	?
NC(=O)C1CCN(CCCNC2CC(=O)N(Cc3ccc(N4CCCC4=O)cc3)C2=O)CC1 (stereo not given)	>57	5%
CN1/C(=C/C(=O)C2CCC2)Sc2ccccc21	>57	?
N#CC1=C(N)C2=C(N3CCCCC3)CCCC2C1(C#N)C#N (stereo not given)	>57	-27%
CC(=O)Cn1c(C(F)(F)F)nc2ccccc21	/	?
COc1ccc(C(=O)N2CCC[C@@]3(CCN(C(=O)Nc4cccc(C#N)c4)C3)C2)cc1	>57	-5%
Cc1ccc(C(=O)N2Cc3ccccc3CC2C(=O)O)cc1 (stereo not given)	>57	-1%
O=C1CC(C(=O)Nc2ccc(Br)cc2)C2(CCCC2)O1 (stereo not given)	>57	2%
Cc1c(C(=O)NCc2cccnc2)oc2ccc(S(=O)(=O)N3CC(C)CC(C)C3)cc12 (stereo not given)	>57	7%
O=C(CC1SC(=O)N(c2ccccc2)C1=O)Nc1ccccc1 (stereo not given)	>57	12%
CCCC(=O)Nc1ccc(NC(=O)C23CC4CC(CC(C4)C2)C3)cn1	>57	17%
CCOC(=O)c1sc2nc(SCC(=O)NCc3ccco3)n(Cc3ccccc3)c(=O)c2c1C	>57	?
COc1cccc2c1C(=O)c1c(O)c3c(c(O)c1C2=O)C[C@](O)(C(=O)CO)C[C@@H]3O[C@H]1C[C@H](N)[C@@H](O)[C@H](C)O1	>57	0%[8 µM]
COc1cccc2cc(C(=O)N3CCN(c4ncccn4)CC3)c(=O)oc12	>57	0%
COc1ccc(NC(=O)c2ccc(CN3CCN(c4ccccc4)CC3)cc2)cc1	/	6%

Of the compounds above, these contain a furan ring, fused or not:
SMILES	SmPrx2 inh	Anthrax LT inh
O=S(=O)(NCc1ccccc1)c1ccc(S(=O)(=O)N(Cc2ccccn2)Cc2ccco2)cc1	>57	-13%
N#Cc1nc(-c2cccs2)oc1NCc1ccco1	/	9%
CCOC(=O)N1CCC(NC(=O)c2ccc(CS(=O)(=O)c3c(Cl)cccc3Cl)o2)CC1	>57	-11%
Cc1nc(N[C@@H](Cc2c[nH]c3ccccc23)C(=O)O)c2oc3ccccc3c2n1	>57	-3%
Cc1c(C(=O)NCc2cccnc2)oc2ccc(S(=O)(=O)N3CC(C)CC(C)C3)cc12 (stereo not given)	>57	7%
CCOC(=O)c1sc2nc(SCC(=O)NCc3ccco3)n(Cc3ccccc3)c(=O)c2c1C	>57	?
